Screening results deposited in PubChem by ICCB-Longwood Screening Facility, Harvard Medical School.
MgrA DNA FP: modulators of Staphylococcus aureus MgrA DNA binding | fluorescence polarization | inhibition, %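 (about 10 µg/mL by stock and volumes)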 | 84,000 compounds, 0.13% hits | AID 602314;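 active = above 50% in either of two replicates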;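 note: 0% = protein plus DNA without compound and 100% = DNA alone without protein; higher means less MgrA bound to DNA so lower polarization; one replicate is shown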
Sa helicase inh: S. aureus DNA helicase inhibition; 120,000 compounds, 0.05% hits; purified S. aureus helicase, fluorescence unwinding assay; about half of the hits fall short of the stated cut; AID 485395; inhibition, %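 (tested at about 80 µM)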;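 active = both duplicates at 50% or more, or one of them with a favoured structure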;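 note: 0% = mean of negative control wells and 100% = mean of positive control wells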
Starred values were filed as active, the others as inactive; . = not tested or not shown. Only part of the results is shown. The share of hits here may be higher or lower than overall.

Second line of a record: MgrA DNA FP | Sa helicase inh
COc1ccc(NS(=O)(=O)N(C)C)cn1
  . | 3
CC(C)CCN(C(=S)Nc1ccc(C(C)C)cc1)C1CCN(C(C)C)CC1
  1.0 | 6
C/C(=C1\N=C(c2ccccc2)OC1=O)N(C)C
  0.9 | .
CCCN(CCC)C(=O)c1sc2nc(-c3ccc(OC)cc3)cn2c1C
  . | 10
O=c1[nH]c(CN2CCOCC2)nc2ccccc12
  -1.4 | -10
Cc1nn(-c2ccccc2)c(N)c1N=Nc1cccnc1
  . | 0
CC(NS(=O)(=O)c1cc(C(F)(F)F)ccc1Cl)C(=O)N1CCN(c2ccccc2)CC1 (stereo unspecified)
  . | 4
CN(c1ccccc1)S(=O)(=O)c1cccs1
  1.3 | -10
O=C(Cn1cnc2scc(-c3ccccc3)c2c1=O)NCc1ccco1
  19 | 0
CN(C(=O)CNC(=O)c1ccc(Cl)cc1)C1CCCCC1
  0.5 | 18
NS(=O)(=O)c1ccc(-n2cccc2/C=C2/C(=O)NN(c3ccccc3)C2=O)cc1
  5.2 | -5
COC(=O)c1ccc(N)cc1O
  1.6 | .
Cc1ccc(N(CC(=O)NCc2ccco2)S(=O)(=O)c2ccc(C)cc2)cc1
  2.4 | 1
COc1ccc2cc(CCNC(=O)C3CCCCC3)c(=O)[nH]c2c1
  . | 7
OCN1CCCC1
  -5.1 | -6
CC1=C(C(=O)Nc2ccc(Br)cc2F)C2(CCN(S(C)(=O)=O)CC2)OC1=O
  . | 7
Nc1nc(-c2ccccc2)cc(=S)s1
  2.3 | 14
COc1ccc2nc(NC(=O)COC(=O)c3cccc(S(=O)(=O)N4CCOCC4)c3)sc2c1
  . | 1
O=C(NCc1ccco1)c1ccc(S(=O)(=O)N2CCCC2)cc1
  . | -11
C=CCn1c(=S)sc2c(=O)[nH]cnc21
  . | 8
CCOc1ccc2sc(C=NCCc3ccccn3)c(O)c2c1
  -0.1 | .
CC1=C(C(=O)OC2CCCC(C)C2)C(c2cc3c(cc2Br)OCO3)NC(=O)N1 (stereo unspecified)
  -0.6 | .
Cn1c(C(=O)Nc2ccc3c(c2)OCCO3)cc2c(=O)[nH]c3ccccc3c21
  . | -36
Cn1nc(-c2ccc(Cl)cc2)c2cc(C(=O)N3CCN(c4cccc(Cl)c4)CC3)sc21
  . | -17
Cc1cccc(CN2CCC(CNC(=O)NCc3noc4ccccc34)CC2)c1
  -0.3 | -1
NNC(=O)c1csc(COc2cc(Cl)cc(Cl)c2)n1
  -0.1 | .
CCC(=O)N1CCc2cc(S(=O)(=O)NC(C(=O)NCc3ccccc3)C(C)C)ccc21 (stereo unspecified)
  . | 1
COc1ccccc1NC(=O)CC1COc2ccccc2O1 (stereo unspecified)
  -1.1 | 2
CCN(CCO)C(=O)C12CCC(C)(C(=O)C1)C2(C)C (stereo unspecified)
  -0.5 | 11
O=C(COc1coc(CN2CCc3ccccc32)cc1=O)c1ccccc1
  . | 10
CC(=O)N1CCc2cc(S(=O)(=O)CCC(=O)Nc3ccc(C)cc3Cl)ccc21
  . | -13
COc1cccc(OC)c1CN(C)C(=O)c1cnccc1C(F)(F)F
  0.0 | .
CC1(C)C(C=C(Cl)Cl)C1C(=O)N1CCOCC1 (stereo unspecified)
  . | 1
NC(=O)CN1CCN(C/C=C/c2ccccc2)CC1
  -0.1 | 1
CN=C(C)/C(C(=O)OC)=C(\O)c1cc(C)on1
  -2.2 | .
Cc1ccc(/C=N/NC(=O)C2=NNC(=O)C2C)o1 (stereo unspecified)
  -1.0 | 15
S=C(N/N=C/c1ccccc1Cl)Nc1cccc(Cl)c1Cl
  -2.9 | .
C=CCNC(=O)c1ccc2c(c1)nnn2C
  4.2 | 8
O=C1c2cccc3c(N4CCCCC4)ccc(c23)C(=O)N1c1ccccn1
  13 | -28
CCOC(=O)c1sc(NC(=O)COc2ccccc2)nc1-c1ccccc1
  . | 16
CCc1ccc(C(=O)NCC2(c3ccccc3)CCOCC2)o1
  2.4 | -9
O=C(CSc1nnc2c(n1)[nH]c1ccccc12)OCN1C(=O)c2ccccc2C1=O
  . | -8
COC(=O)CSC1=C(C#N)C(=O)NC(/C=C/c2ccccc2)S1 (stereo unspecified)
  7.4 | -8
COc1ccc(-c2nc3n(c(=O)c2C#N)CCS3)cc1
  -1.9 | 10
ClC1=C(c2ccncc2)NC(c2ccccc2)=CS1
  . | -11
C=CCN1C(=O)/C(=C/c2c(Sc3ccccc3)nc3ccccn3c2=O)SC1=S
  22 | -103
Cn1c(=O)c2cn(-c3ccccc3)cc2n(C)c1=O
  . | 10
Cc1nc2c(C(=O)NCCc3ccccc3Cl)c[nH]n2c(=O)c1Cl
  11 | 12
CS(=O)(=O)Nc1cccc(C2=NN(C(=O)CCC(=O)O)C(c3cccc(F)c3)C2)c1 (stereo unspecified)
  2.2 | -6
COc1ccc(-c2noc(CNC(C)(C)C)n2)cc1OC
  -2.6 | 8
CCOC(=O)c1cnc(=O)[nH]c1N
  . | 14
CCOC(=O)c1c(O)cc2ccccc2c1O
  1.6 | -2
CC(C)(C)NC(=O)c1cnc2n(c1=O)CCS2
  . | 5
COc1cc(C)nc(NN)n1
  2.8 | 6
C=CCn1nnnc1SCC(=O)c1ccc(Cl)c(Cl)c1
  . | 9
CCOC(=O)c1ccc2c(c1)nc(SCc1nc3ccccc3s1)n2CC
  . | -10
Cc1ccc(-n2c(SCC(=O)NC(C)(C)C)nc(O)cc2=O)cc1
  -2.0 | -29
CN(C)c1ccc(C2CC(=O)c3ccccc3N2)cc1 (stereo unspecified)
  0.1 | .
O=C(Nc1nccs1)c1ccccc1NS(=O)(=O)c1ccc(F)cc1
  . | -20
O=C1/C(=C/c2cccnc2)CCc2ccccc21
  0.7 | .

Retrieved by structure from the entries so far (four):
Second line of a record: MgrA DNA FP | Sa helicase inh
CS(=O)(=O)Nc1cccc(C2=NN(C(=O)CCC(=O)O)C(c3cccc(F)c3)C2)c1 (stereo unspecified)
  2.2 | -6
C=CCn1nnnc1SCC(=O)c1ccc(Cl)c(Cl)c1
  . | 9
CCOC(=O)c1c(O)cc2ccccc2c1O
  1.6 | -2
Cc1nc2c(C(=O)NCCc3ccccc3Cl)c[nH]n2c(=O)c1Cl
  11 | 12

(more compounds)
Second line of a record: MgrA DNA FP | Sa helicase inh
COc1ccc(C2C(C(=O)N3CCCCC3)=C(C)NC3=C2C(=O)CCC3)cc1O (stereo unspecified)
  0.8 | 6
O=C(CCn1nnc(-c2cccs2)n1)NCc1ccccc1Cl
  -0.5 | -15
Cc1c(Br)c(C(F)(F)F)nn1CC(=O)N1CCOCC1
  -1.1 | -1
CCOC(F)(C(N)=O)C(F)(F)F (stereo unspecified)
  . | 4
COc1ccc(OC)c(NC(=O)c2cccnc2)c1
  0.2 | -4
CCSC1(SCC)N=C(N)C2(C#N)C(c3cccc(OC)c3)C12C#N (stereo unspecified)
  . | 14
Cc1ccc(CNC(=O)CN2C(=O)C3(OCCCO3)c3ccccc32)cc1
  . | 8
Cc1ccc(N2C(=O)N(Cc3c(C)noc3C)C(=O)C2C)cc1 (stereo unspecified)
  . | 6
O=C(Nc1ccc(Br)c(C(F)(F)F)c1)c1ccc(=O)[nH]c1
  . | -15
O=C(Nc1cnc2ccccn2c1=O)c1ccccc1
  -0.5 | 7
CC(C)c1ccc2oc(-c3cccc(N)c3)nc2c1
  . | -9
CCN(C(=O)C1CCCN(c2nc(-c3ccc(OC)cc3)no2)C1)c1ccccc1F (stereo unspecified)
  0.6 | -6
Cc1ccc(C(=O)OCC(=O)N2CCOCC2)cc1
  . | -7
CC(=O)Nc1ccccc1-c1nc2ccccc2s1
  0.4 | 9
CCn1cc(C(=O)N2CCN(c3ccc(F)cc3)CC2)c(=O)c2cc(S(=O)(=O)N(C)C)ccc21
  . | -23
C=CCn1c(=S)[nH]c2scc(-c3ccc(OC)c(OC)c3)c2c1=O
  12 | .
OCC1(CO)CSC(Nc2cc(Cl)cc(Cl)c2)=N1
  2.5 | .
CC(C)(C)Cc1nc(-c2ccccc2)no1
  -1.2 | 19
CC(=O)NCCC(=O)O
  . | -21
NC(=O)C1CCN(C(=O)c2ccc(NC3=NC4CS(=O)(=O)CC4S3)cc2)CC1 (stereo unspecified)
  . | -15
N#Cc1ccccc1Cn1cc(/C=C2\NC(=O)NC2=O)c2ccccc21
  0.7 | 9
COc1ccc(Br)cc1S(=O)(=O)NCc1ccc2c(c1)OCO2
  . | -7
O=C(Oc1ccccc1)c1ccc(F)cc1
  -0.5 | 4
Cc1ccc(-n2nc3c(c2NC(=O)COc2ccc(Cl)cc2)CSC3)c(C)c1
  -0.2 | -9
Cc1ccc(C(=O)CSC2=C(C#N)C(c3ccco3)C3=C(CCCC3=O)N2)cc1 (stereo unspecified)
  . | 12
O=C(CSCc1c(F)cccc1Cl)Nc1ccc(F)c(Cl)c1
  -0.9 | .
CN1CCN(c2ccc(-c3ccnn3C(=O)Nc3cccc(C(F)(F)F)c3)cc2)CC1
  -0.6 | .
COc1ccccc1NC(=O)/C=C1\SCC(=O)N1C
  . | -8
O=c1oc(-c2ccccc2)nc2scc(-c3ccccc3)c12
  1.6 | -7
COc1ccc(C2C(=O)c3cc(OC)c(OC)cc3C2c2ccccc2)cc1OC (stereo unspecified)
  1.6 | 6
COc1ccc(OC)c2nc3c(nc12)C(=O)c1ccccc1-3
  -1.8 | .
CCN(CC)C(=O)/C=C/c1cn(-c2ccccc2)nc1-c1ccccc1
  -2.3 | 6
CC1(C)CC(=O)C2=C(C1)OC1=C(C(=O)CC(C)(C)C1)C2c1ccc(O)c([N+](=O)[O-])c1
  -0.3 | .
Cc1ccc(-c2csc(-c3cc(C)on3)n2)cc1
  -0.5 | .
COc1ccc(-c2cc(C)nc(N)c2C#N)cc1
  -0.2 | 10
Cc1nn2cc(-c3ccc(-c4ccccc4)cc3)nc2s1
  2.1 | 7
CCCCN1C(=O)C(=O)/C(=C(\O)c2ccc(OC)cc2)C1c1ccc2c(c1)OCO2 (stereo unspecified)
  . | 15
c1ccc2c(c1)oc1c(N3CCNCC3)ncnc12
  . | -6
Cc1c(C(=O)OC(C)C(=O)N(C)c2ccccc2)oc2ccccc12 (stereo unspecified)
  . | -7
CC1=NN(Cc2ccccc2)C(=O)/C1=C\c1ccc(N(C)C)cc1
  -0.9 | 14
Nc1ccc2nc(SCc3cccc(F)c3)sc2c1
  2.1 | -1
O=C1/C(=C\c2ccco2)N=C(SCc2nc3sc4c(c3c(=O)[nH]2)CCCC4)N1c1ccc(OC(F)F)cc1
  . | -21
N#Cc1ccc(CSc2nc(-c3cccs3)c3c(c2C(=O)O)CCCC3)cc1
  6.9 | 15
O=C(Cn1cc(C(F)(F)F)ccc1=O)N1CCCC1
  . | -3
CN(C1CCCCC1)S(=O)(=O)C1CCS(=O)(=O)C1 (stereo unspecified)
  -2.4 | 9
COc1ccc(NC(=O)CSCc2cc(=O)[nH][nH]2)cc1
  . | 5
COc1cccc(/C=N/NC(=O)c2oc3nc(-c4ccccc4)cc(-c4ccco4)c3c2N)c1
  . | -132
O=C1/C(=C/c2c[nH]c3ccccc23)Sc2ccccc21
  0.1 | .
Cc1ccc(N2C(=O)CC(N3CCN/C3=C3/CC/C(=C\c4ccccc4)C3=O)C2=O)cc1 (stereo unspecified)
  . | -5
O=C(NCc1ccco1)c1ncoc1-c1ccc2ccccc2c1
  0.7 | -4
Cc1ccc(CC(=O)NCCN(C)C)cc1
  5.9 | 6
O=C(O)c1ccccc1S(=O)O
  3.5 | -14
NCCc1ccc(O)c(O)c1
  0.9 | .
O=C(Nc1ccccc1C(=O)N/N=C/c1ccco1)c1ccc(Cl)cc1
  . | -19
CCCCCCn1c(COc2ccccc2F)nnc1SCC(=O)/C(C#N)=C(\C)N
  . | 13
CCCCn1ccnc1C(=O)c1cc(Cl)cc(Cl)c1
  -0.9 | 10
CC(=O)On1cc(F)c(=O)[nH]c1=O
  -3.0 | 2
CN(C)S(=O)(=O)c1ccc(S(=O)(=O)N2CCCC(C(=O)NC(C)(C)C)C2)cc1 (stereo unspecified)
  3.6 | 7
C=CCN1C(=O)c2ccccc2Sc2ccc(C(=O)NC3CCCCC3C)cc21 (stereo unspecified)
  3.5 | 17
CCS(=O)(=O)c1ccc(O)c(NC(=O)CCCC(=O)O)c1
  -3.0 | .

As entered above:
`Cc1ccc(N2C(=O)CC(N3CCN/C3=C3/CC/C(=C\c4ccccc4)C3=O)C2=O)cc1` (stereo unspecified) @ Sa helicase inh = -5
`O=C1/C(=C\c2ccco2)N=C(SCc2nc3sc4c(c3c(=O)[nH]2)CCCC4)N1c1ccc(OC(F)F)cc1` @ Sa helicase inh = -21
`C=CCN1C(=O)c2ccccc2Sc2ccc(C(=O)NC3CCCCC3C)cc21` (stereo unspecified) @ MgrA DNA FP = 3.5

Additional entries follow.
Second line of a record: MgrA DNA FP | Sa helicase inh
C/C(=C\C(=O)c1ccc(C)o1)Nc1ccc(C(=O)O)cc1C
  -11 | 11
CN1CC23C=CC(O2)C(C(=O)O)C3C1=O (stereo unspecified)
  . | 4
CC1CN(S(=O)(=O)c2cccc(C(=O)NCC(c3ccco3)N(C)C)c2)CC(C)O1 (stereo unspecified)
  . | 1
CCOC(=O)c1c(C)[nH]c2ccc(C)cc2c1=O
  -0.8 | 1
N=C(N)SCC(=O)Nc1ccccc1
  1.1 | -4
COC(=O)c1ccccc1NC(=O)Cn1sc2ccccc2c1=O
  . | 7
CSC(=NC#N)N1CCC(C(N)=O)CC1
  -2.4 | .
COc1ccc(Nc2nc(OC)nc(OC)n2)cc1
  3.1 | 5
CCOC(=O)c1c(C#N)c(SCC(=O)Nc2ccc(OC)cc2)nc2c1CN(CC)CC2
  . | 33
O=C(c1cccnc1Oc1ccccc1)N1CCOCC1
  -1.1 | .
COc1ccc(CCN2C(=O)CC(C(=O)Nc3ccc(C(=O)O)cc3)SC2=Nc2ccccc2)cc1OC (stereo unspecified)
  -0.9 | .
Cc1nn(C)c(C)c1S(=O)(=O)N1CCC(C(=O)NC2CCCCCC2)CC1
  -0.3 | 15
CC(C)(C)c1cn2c3ccccc3n(N)c2n1
  4.6 | 10
